Screening data as filed in PubChem BioAssay.
Rce1 inhib = inhibitors of yeast Ras-converting enzyme; Q03530; yeast membranes, quenched prenylated peptide cleavage fluorescence; calls only; 290,000 tested, 0.27% active; AID 2563;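 active = fall in fluorescence gain of 50% or more versus controls, with final raw signal at or below 3038400; inconclusive = same 50% fall but final raw signal above 3038400; inactive = fall in fluorescence gain under 50%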;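 note: plate controls were neutral control wells for no effect and wells lacking membranes for full effect; tested at 10 µM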
Target sequence (Q03530 whole entry, looked up): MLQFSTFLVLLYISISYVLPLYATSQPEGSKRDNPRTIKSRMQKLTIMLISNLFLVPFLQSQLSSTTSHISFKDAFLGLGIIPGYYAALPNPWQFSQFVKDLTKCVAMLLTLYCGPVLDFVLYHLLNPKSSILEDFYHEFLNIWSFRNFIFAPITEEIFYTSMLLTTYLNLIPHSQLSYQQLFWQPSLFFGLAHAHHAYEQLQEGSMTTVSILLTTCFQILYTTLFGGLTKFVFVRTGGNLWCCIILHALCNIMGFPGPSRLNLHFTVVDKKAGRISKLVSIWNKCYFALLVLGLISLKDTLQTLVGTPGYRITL
HIV Env fusion = inhibitors of HIV Env-mediated cell fusion. HeLa-JRFL Env/CEM21 cell fusion, luciferase. inhibition, % at 12.3 µM. 360,000 tested, 1.1% active. AID 651610;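 active = mean replicate inhibition score of at least 50 and every replicate individually at or above 50; inconclusive = only one of the two criteria met; inactive = mean below 50 and not all replicates reaching 50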;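 note: 0% = plate neutral controls and 100% = maraviroc near 300 nM; one replicate is shown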
MT1-MMP act inh = blocks activation of human MT1-MMP. P50281. HT1080 RFP-PRO-GFP cells, GFP/RFP ratio fluorescence, overnight; percent of plate control window, DMSO zero. GFP/RFP ratio change, % at 20 µM. 360,000 tested, 0.061% active. AID 651647;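 active = GFP/RFP ratio change of at least 30% with cell ATP level not reduced by more than half and red fluorescence within 50% of control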; note: strong numbers were not always called active
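Test system: HT1080 RFP-PRO-GFP cells; Benchmarks: DMSO and RFP-L50D-GFP cell wells; Timing: cells overnight before dosing, compound overnight, 37 °C, 5% CO2; Compound: one 20 µM compound dose with 1% DMSO; Read-out: GFP/RFP fluorescence ratio.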
eIF4H inh = inhibitors of RNA binding by human eIF4H; Q15056; eIF4H fluorescence polarization binding assay; inhibition, % at 35 µM; 290,000 tested, 0.94% active; AID 2012;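 active = 50% or more with normal probe brightness, or confirmed in later tests; inconclusive = above 50% with abnormal brightness, or retests that disagree; inactive = below 50% or failed in later tests; about a fifth of its hits are not listed in these tables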;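 note: calls also rest on retests at 20 µM and on dose response follow-up; 0% = protein and probe with vehicle and 100% = probe without protein; strong numbers were not always called active; many hits fall short of the cut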
CSC inhib = blocks cancer stem cells. cancer stem cell-like cells viability, luminescence. inhibition, % at 7.5 µM. 300,000 tested, 1.1% active. AID 2717;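 active = mean at 75% or more and at least half the replicates too; inconclusive = mean and replicates disagree; tested in HMLE shEcad cells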;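 note: 0% = median of negative and 100% = median of positive control wells; the first replicate is given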
PABP polyA inh = blocks human PABP binding to poly(A) RNA | P11940 | fluorescence polarization | inhibition, % at 35 µM | 290,000 tested, 1% active | AID 2014;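 active = 50% or more with normal probe brightness, or confirmed in later tests; inconclusive = above 50% with abnormal brightness, or retests that disagree; inactive = below 50% or failed in later tests; about a fifth of its hits are not listed in these tables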;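 note: calls also rest on retests at 20 µM and on dose response follow-up; controls were probe without protein and protein plus probe with vehicle; some compounds called inactive have numbers as strong as hits; many hits fall short of the cut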
Yeast UUG start = yeast start codon fidelity modulation; S. cerevisiae UUG-firefly luciferase reporter, luminescence/redox ratio; activity score, % at 18.7 µM; 350,000 tested, 0.13% active; AID 602363;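 active = replicate mean at a twofold rise or more, about +100% in these data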;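 note: firefly luciferase made from a UUG start codon reports start codon fidelity; reporter light over untreated wells divided by growth signal over untreated wells; some hits fall short of that in this replicate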
MT1-MMP act inh RFP = recorded beside MT1-MMP act inh, whose call it bears; RFP signal change, %; measured here: RFP expression control read;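 0 = vehicle wells; hits needed this value within 50% of zero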
Starred values were filed as active, the others as inactive; i = inactive; u = inconclusive; x = not tested or not shown; [ ] = another dose, or the depositor's remark.

Each structure is followed by: Rce1 inhib	HIV Env fusion	MT1-MMP act inh	MT1-MMP act inh RFP	eIF4H inh	CSC inhib	PABP polyA inh	Yeast UUG start
- COC(=O)[C@H](CCSC)NC(=O)Nc1cc(C)ccc1C
 : i	x	2.1	4.5	8.3	-8.9	0.5	-22.4
- CCN(C(=O)CSc1nncn1-c1ccccc1)c1c(N)n(Cc2ccccc2)c(=O)[nH]c1=O
 : i	x	2.3	11.0	-10.1	-19.1	-3.3	-3.6
- CCOC(=O)c1cc(-c2csc(N/N=C/c3ccccc3Cl)n2)on1
 : i	-6.7	-3.1	-6.6	1.0	5.2	-0.4	x
- COCCN1CN=C(NS(=O)(=O)c2ccc(C)cc2)NC1
 : i	2.9	-2.7	3.4	1.8	-18.1	-1.7	-10.1
- CCOc1ccc(CNC(=O)CCS(=O)(=O)c2ccc3c(c2)oc(=O)n3C)cc1
 : i	1.2	0.3	1.6	0.9	-20.6	4.8	-8.7
- COc1ccc(NC(=O)C2CCN(S(=O)(=O)c3cccc4cccnc34)CC2)cc1
 : i	-23.1	-1.5	3.0	-6.8	-16.6	-41.4	-4.3
- CCOC(=O)c1cc(C#N)c(SCc2cccc3ccccc23)nc1C
 : i	x	1.1	-6.4	-1.8	-4.9	-4.4	-22.6
- CC(C)(C)c1ccc(OCC(=O)N/N=C/C2CC=CCC2)cc1 (stereo unspecified)
 : i	-14.5	8.6	4.4	-4.9	-1.9	7.2	x
- COc1ccc(N(CC(=O)NCCC2=CCCCC2)S(=O)(=O)c2ccc(C)cc2)cc1
 : i	x	x	x	2.7	-4.2	-0.7	x
- O=C(NCc1ccco1)C1CCN(C(=O)c2ccc(Cl)cc2Cl)CC1
 : i	1.7	-4.7	-1.9	4.2	-9.5	11.4	-6.7
- OC(CCc1ccncc1)COc1ccccc1 (stereo unspecified)
 : i	15.2	5.8	-0.3	x	-5.9	x	-12.6
- CCc1ccc(-c2cc(C)no2)cc1S(=O)(=O)N1CCN(c2ccccn2)CC1
 : i	8.0	-0.1	-9.3	-15.4	15.5	-1.7	-10.0
- CCCc1noc2c1C(c1cc(Br)ccc1F)C(C#N)=C(N)N2 (stereo unspecified)
 : i	7.6	1.5	-6.3	4.0	5.8	11.3	-14.6
- O=C(c1cccc(F)c1)N1CCN(c2cccc(C(F)(F)F)c2)CC1
 : i	-33.3	1.1	3.8	-0.8	5.5	10.5	-14.1
- CS(=O)(=O)N1CCN(c2ccc([N+](=O)[O-])cc2C(F)(F)F)CC1
 : i	-9.9	-0.2	-1.6	-5.5	-9.1	-14.0	x
- Cc1ccc(NC(=O)c2cc(NC(=O)CCC(=O)O)ccc2N2CCCCC2)cc1
 : i	x	0.4	1.3	-9.8	-9.3	-13.6	-12.4
- Cc1c(OCC(=O)NCC(O)c2ccccc2)ccc2c3c(c(=O)oc12)CCC3 (stereo unspecified)
 : i	-8.3	3.1	-5.2	21.5	-18.9	44.0	-2.4
- CC1(C)Cc2cccc(OCC(=O)N3CCN(c4ccccc4Cl)CC3)c2O1
 : i	-0.4	1.9	-0.9	x	-9.4	x	-12.8
- N=c1ccn2c(n1)O[C@H]1[C@@H](CO)[C@H](O)O[C@H]12
 : x	48.3	-8.9	-1.1	x	56.2	x	-9.8
- Cc1ccccc1Cn1cc(C)c(=O)[nH]c1=O
 : i	-2.6	3.1	0.6	1.3	4.8	-7.8	-8.3
- Cc1cccc(N2CCN(C(=O)Cn3cnc4c3c(=O)n(C)c(=O)n4C)CC2)c1C
 : i	x	-2.2	-4.0	-10.5	26.6	-0.9	-14.8
- O=C1C(=O)N(Cc2cccnc2)C(c2cccc([N+](=O)[O-])c2)/C1=C(\O)c1ccc2c(c1)OCCO2 (stereo unspecified)
 : i	16.4	0.7	-2.5	-13.7	-2.1	16.6	-2.4
- O=C(Cc1ccccc1)c1nnc(-c2ccccc2)o1
 : i	7.8	-1.8	7.8	-3.9	-5.9	4.2	x
- O=c1nc2ccccc2c(NS(=O)(=O)c2ccccc2)n1-c1ccccc1
 : i	-39.5	-3.4	2.3	2.0	-13.3	1.6	-19.3
- O=C1[C@@H]2C(Cc3ccc(O)cc3)NC3(C(=O)Nc4ccc(F)cc43)[C@@H]2C(=O)N1c1ccc(F)cc1 (stereo partly specified)
 : x	-45.5	-3.6	1.5	-6.8	-17.0	-14.3	x
- CCCNC(=O)N1C[C@H](O)COC[C@H]2O[C@@H](CC(=O)N[C@@H]3CCN(Cc4ccccc4)C3)CC[C@@H]21
 : x	1.7[16.7 µM]	-0.2	3.6	x	x	x	-10.0
- Cc1nn(-c2ccccc2)c(C)c1C(=O)OCC(=O)c1c(N)n(CC(C)C)c(=O)n(C)c1=O
 : i	u	1.7	-19.0	-3.0	4.1	7.3	-8.0
- CCN1C(=O)[C@H]2[C@@H](c3ccc(C)cc3)N3C(=O)N(c4ccccc4)C(=O)[C@@]3(Cc3ccccc3)[C@H]2C1=O
 : i	-62.9	-0.2	0.8	0.2	2.9	15.4	-3.9
- CN(C)c1ccc(CNc2nc3ccccc3s2)cc1
 : i	x	x	x	-5.9	1.6	-10.4	x
- COc1ccc(CCNC(=O)c2cc(-c3ccccn3)nc3c(Cl)cccc23)cc1OC
 : i	2.5	-0.3	-2.0	-2.5	4.4	-4.0	x

A different layout for some results above:
O=C(Cc1ccccc1)c1nnc(-c2ccccc2)o1
  Rce1 inhib: i | HIV Env fusion: 7.8 | MT1-MMP act inh: -1.8 | MT1-MMP act inh RFP: 7.8 | eIF4H inh: -3.9 | CSC inhib: -5.9 | PABP polyA inh: 4.2 | Yeast UUG start: x
CCCNC(=O)N1C[C@H](O)COC[C@H]2O[C@@H](CC(=O)N[C@@H]3CCN(Cc4ccccc4)C3)CC[C@@H]21
  Rce1 inhib: x | HIV Env fusion: 1.7[16.7 µM] | MT1-MMP act inh: -0.2 | MT1-MMP act inh RFP: 3.6 | eIF4H inh: x | CSC inhib: x | PABP polyA inh: x | Yeast UUG start: -10.0

Other entries follow:
Each structure is followed by: Rce1 inhib	HIV Env fusion	MT1-MMP act inh	MT1-MMP act inh RFP	eIF4H inh	CSC inhib	PABP polyA inh	Yeast UUG start
- CCCC(C)C(=O)Nc1nnc(CCc2ccccc2)s1 (stereo unspecified)
 : i	-49.1	4.9	-4.4	30.7	0.8	-4.6	-1.1
- O=C(Nc1cc(Cl)ccc1O)c1cc2n(n1)C(C(F)(F)F)CC(c1ccc3c(c1)OCO3)N2 (stereo unspecified)
 : i	x	-12.4	-15.7	3.3	29.6	-5.5	-6.0
- COc1cc(/C=N/NC(=O)CNC(=O)c2ccccc2)ccc1OC(=O)c1cccs1
 : i	-9.3	7.2	4.0	10.3	9.3	9.0	-1.5
- Cc1ccc(C(=O)c2cc3c(cc2N)OCCO3)cc1
 : i	-9.3	1.6	2.3	-9.6	1.3	-3.9	7.9
- CN1CCN(S(=O)(=O)c2ccc3c(c2)NC(=O)CS3)CC1
 : i	9.5	-0.4	-0.4	-7.6	-23.2	10.9	15.3
- Cc1cccc(CCNC(=O)CC2C(=O)NCCN2Cc2ccc(F)c(F)c2)n1 (stereo unspecified)
 : i	-5.1	-7.4	-1.4	17.9	-6.3	5.6	6.5
- CCOc1ccc(CNC(=O)CCS(=O)(=O)Cc2cccc(Cl)c2)cc1OC
 : i	9.8	2.0	1.2	2.9	0.7	-14.5	2.3
- Cc1ccc(-n2nc3c(=S)[nH]nc(C)c3c2C)cc1
 : i	x	8.7	5.6	5.2	2.2	1.6	-15.8
- COc1cc(OC)c2c(-c3ccccc3)cc(=O)oc2c1C(CC(=O)N1CCOCC1)c1ccc(N(C)C)cc1 (stereo unspecified)
 : i	17.4	-6.0	-9.2	1.5	-6.7	6.0	-9.5
- CNC(=S)N1CCn2cccc2C1c1ccc(F)cc1 (stereo unspecified)
 : i	10.1	2.0	7.1	13.2	-15.2	-1.1	-17.1
- O=C(NCCCc1ccccc1)c1ccc(F)cc1
 : i	x	-1.3	-3.1	-4.5	5.3	-2.3	2.9
- COc1cccc(CSc2nnc(-c3ccc(F)cc3)o2)c1
 : i	x	9.2	52.4	-1.3	-11.8	-4.1	5.5
- CC[C@]12c3[nH]c4cc(-c5ccco5)ccc4c3CCN1C(=O)[C@@H](CC(=O)NC(C)(C)C)C[C@@H]2C(=O)N1CCN(C(=O)C2CC2)CC1
 : x	-0.6	0.4	2.6	x	x	x	1.7
- CCOc1ccccc1/C=N/NC(=O)c1nnn(-c2nonc2N)c1CN1CCCCCC1
 : i	-7.0	-2.4	6.9	x	-1.0	x	-16.3
- Cc1ccc(-n2ncc3c(=O)n(CC(=O)Nc4cccc(Cl)c4)cnc32)cc1C
 : i	x	-1.0	-5.7	-8.9	-1.1	-3.2	6.8
- O=C1c2ccsc2SCCN1Cc1cccc(Cl)c1
 : i	x	-4.2	-3.2	-7.1	-2.0	-3.9	x
- Cc1ccc(S(=O)(=O)Nc2ccc3c(c2)C(=O)NC3=O)cc1[N+](=O)[O-]
 : i	-5.4	-4.3	2.8	-11.7	-13.0	3.8	-14.5
- CCN(CC)CCCNC(=S)N(CCO)Cc1cc2cc3c(cc2[nH]c1=O)OCCO3
 : i	-4.1	-3.0	-1.0	-3.6	-7.6	3.9	-17.1
- Cc1cccc(C(=O)Nc2ccn(C)n2)c1
 : x	-13.2	-4.9	3.3	x	x	x	-13.1
- Cc1nc(SC(C)C(=O)NC2CCCCC2C)c2c(C)c(C)sc2n1 (stereo unspecified)
 : i	15.4	-0.4	2.3	-1.4	-1.4	-1.6	8.9
- COc1ccc(Cl)cc1NC(=O)CN1CCN(S(=O)(=O)c2ccc(F)cc2)CC1
 : i	0.1	-4.6	-4.4	0.4	1.0	0.1	-1.3
- O=C(NCc1ccc(Cl)cc1)c1ccc(-n2cccn2)nc1
 : i	-10.9	3.6	-0.5	-5.1	-4.2	13.1	x
- Cc1cc(C)c(C)c(OCCN2CC(C)OC(C)C2)c1 (stereo unspecified)
 : i	0.3	1.1	5.8	4.9	x	11.7	3.1
- CCC(C)(C)C(=O)O
 : x	x	-1.1	3.5	x	4.0	x	-12.6
- FC(F)(F)c1cccc(-c2cc3nc(NCCCn4ccnc4)ccn3n2)c1
 : x	2.1	-4.0	-4.0	x	x	x	2.9
- COc1c(Cl)cc(C(=O)Nc2ccccc2-c2ccccc2)cc1Cl
 : i	x	-5.3	-6.3	-0.1	21.7	7.0	3.5
- CCCCC(=O)Nc1nnc(SCC(=O)N2CCN(c3ccccc3OC)CC2)s1
 : i	9.1	-3.2	-9.7	-8.3	-14.5	3.1	x
- Cc1nc2sc3c(c2c2nnc(SCC(=O)NCc4ccco4)n12)CCCC3
 : i	x	28.5	0.5	3.3	-0.1	-7.7	6.6
- COc1cccc(CN2CCN(c3ncccn3)CC2)c1
 : i	-16.1	7.1	5.0	-4.6	-12.5	1.7	-7.4
- COc1ccccc1-c1coc2c(CN3CCCCC3C)c(O)ccc2c1=O (stereo unspecified)
 : i	-5.0	-2.1	-0.1	-2.8	1.8	-5.0	-9.6
